# Menin MLL FP FL: displaces fluorescein MLL peptide from human menin; Fluorescence polarization, fluorescein-MLL peptide displacement from menin; FP activity change, % at 61.4 µM; 290,000 tested, under 10 active; inconclusive = falling polarisation curve, or a change in total fluorescence; inactive = total fluorescence flat and polarisation flat or rising; no compound was filed as active; the % refers to the polarisation; negative = inhibition;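 note: % of control where 0% means no effect; inhibitors lower the polarisation; unlabelled MLL peptide was the positive control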
# D2 agonist: agonists of human D2 dopamine receptor (beta-arrestin); P14416; DiscoveRx PathHunter D2 beta-arrestin, luminescence, 90 min; 100% = 57 uM dopamine signal; activation, % (concentration not given with the values); 0.084% of 360,000 active; AID 624465; in the data active = activation above about 40%; inconclusive = about 15% to 40%; inactive = below about 15%; note: compound concentration not given in the record; the text of the record calls up to 30% inactive
# Target sequence (P14416 whole entry, looked up): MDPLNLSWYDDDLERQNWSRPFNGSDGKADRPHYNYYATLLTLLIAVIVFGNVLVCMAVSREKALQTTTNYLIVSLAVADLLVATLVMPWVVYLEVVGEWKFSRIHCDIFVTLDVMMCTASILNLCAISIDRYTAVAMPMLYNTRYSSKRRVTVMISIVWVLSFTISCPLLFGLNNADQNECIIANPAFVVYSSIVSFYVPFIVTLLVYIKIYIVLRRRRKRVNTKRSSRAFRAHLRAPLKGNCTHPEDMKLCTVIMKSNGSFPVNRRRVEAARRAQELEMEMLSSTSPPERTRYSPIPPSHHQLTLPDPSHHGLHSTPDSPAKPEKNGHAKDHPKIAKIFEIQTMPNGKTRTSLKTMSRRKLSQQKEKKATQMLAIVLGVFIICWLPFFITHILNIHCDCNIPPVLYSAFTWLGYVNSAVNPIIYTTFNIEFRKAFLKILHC
#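 Agonist mode: compounds alone added to overnight-plated D2 PathHunter cells for 90 min at 37 C, with 57 uM final dopamine (EC100) defining full response. Beta-arrestin recruitment detected by chemiluminescent reagent, read after 1 h at ambient temperature.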
# ClpP mod: qHTS Assay for Activators of ClpP. AID 651965, 2013. 1.9% of 340,000 active. purified B. subtilis ClpP, FRET peptide cleavage, 20 min. Potency, µM (highest dose often 57.5 µM), for the others: top-dose activity change, negative = active. ATP-dependent Clp protease proteolytic subunit (Bacillus subtilis (strain 168)), P80244; active = well fitted falling curve with a large enough effect; inconclusive = small, poorly fitted or top-dose-only effect; inactive = no such curve, though single readings can be large or run the other way; note: potency is the fitted concentration of half-maximal effect; the source files actives as falling curves though it sought activators and does not explain the sign; nearly all actives have a fitted effect of over 65% in size; many hits overshoot -100%
# Target sequence (P80244 whole entry, looked up): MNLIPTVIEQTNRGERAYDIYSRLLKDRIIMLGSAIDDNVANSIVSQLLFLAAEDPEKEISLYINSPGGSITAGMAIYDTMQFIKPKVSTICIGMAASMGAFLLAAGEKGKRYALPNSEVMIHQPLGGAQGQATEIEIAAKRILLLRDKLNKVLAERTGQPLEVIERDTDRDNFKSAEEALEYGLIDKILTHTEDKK
#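 FRET quenching reversal measured ClpP activation: 10 microg/mL B. subtilis ClpP at pH 8 with the FRET-FV decapeptide, read at 430 nm after 320 nm excitation. The 20-min minus 0-min signal was scaled between DMSO/no-enzyme wells and ADEP (5.8 microM final).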
# gsp ag: activates gsp, the McCune-Albright syndrome mutation; 0.13% of 340,000 active; gsp mutant cells, cAMP HTRF, 30 min; control for the full effect not named in the record; Potency, µM (highest dose often 76.9 µM), for the others: at the top dose activation (cAMP increase), usual class: activators; AID 624287; active = well fitted activation curve with a large enough effect; inconclusive = small, poorly fitted or top-dose-only effect, or another doubt; inactive = no such curve, though single readings can be large or run the other way; cell line not stated here;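 note: phosphodiesterase inhibitor Ro 20-1724 added with compounds to block cAMP breakdown; potency is the fitted concentration of half-maximal effect; nearly all actives have a fitted effect of over 60% in size; about a fifth of the inactives were tested at one dose only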
#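 Cells in DMEM/10% FBS with G418 were pretreated with compounds in DMSO plus […] (300 uM stock) for 30 min at 37C. cAMP was measured by HTRF (cAMP-d2 plus anti-cAMP antibody-K) after 30 min at room temperature.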
# PINK1 modulator: PINK1 expression modulation | PINK1 immunofluorescence, high-content cytometry, 24 h | Potency, µM (doses to about 76.6 µM), without a hit: top-dose activation (PINK1 increase), usual class: activators | 0.2% of 410,000 active | AID 624263; active = well fitted activation curve with a large enough effect; inconclusive = small, poorly fitted or top-dose-only effect; inactive = flat fitted curve, though single readings scatter; cell line not stated here;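 note: potency is the fitted concentration of half-maximal effect; % of control where 0% means no effect; nearly all actives have a fitted effect of over 65% in size; a mitochondrial uncoupler was the plate control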
#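 PINK1 protein, normally rapidly degraded, was detected by immunofluorescence after 24 hour compound treatment of a stable cell line. Titration data (5 concentrations) came from laser-scanning cytometry, with CCCP-treated wells as controls.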
# gsp antagonist: antagonists of gsp mutant (McCune-Albright syndrome). gsp-mutant cells, cAMP HTRF, 30 min; control for the full effect not named in the record. Potency, µM (top dose mostly 76.9 µM), inactives show at the top dose activity change, negative = inhibition, usual class: inhibitors. 0.4% of 340,000 active. AID 624288; active = falling curve of any shape with a large fitted effect; inconclusive = falling curve, mostly with a smaller effect; inactive = flat or rising curve; cell line not stated here;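 note: intracellular cAMP measured with PDE inhibitor Ro 20-1724 present during compound exposure; potency is the fitted concentration of half-maximal effect; % is set by controls: 0 for no effect and ±100 for the full control effect; nearly all actives have a fitted effect of over 65% in size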
#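 Measurement of cellular cAMP by homogeneous time-resolved fluorescence following a 30 min compound exposure at 37C. The PDE inhibitor […] was present throughout; the assay buffer was DPBS with 0.05% BSA and 0.005% Tween 20.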
# Sfp inh: blocks B. subtilis Sfp PPTase activity | Biochemical Sfp PPTase activity, qHTS | Potency, µM, for inactives: max response, negative = inhibition, actives largely listed as inhibitors | AID 1490 | Q9F4F7 | 3.5% of 310,000 active; active = well fitted inhibition curve with a large enough effect; inconclusive = small, poorly fitted or top-dose-only effect, or another doubt; inactive = no such curve, though single readings can be large or run the other way;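 note: the enzyme is Sfp with the accession as filed and its product quenches rhodamine fluorescence; potency is the fitted concentration of half-maximal effect; 0% = enzyme reaction without inhibitor and -100% = no enzyme wells; top concentration of the series not given in the record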
#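 Fluorescence-quenching assay: 15 nM Sfp-PPTase preincubated 15 min at room temperature with compound, then 5 uM rhodamine-CoA and 12.5 uM BHQ-2-labelled YbbR peptide added. Fluorescence (ex 525/em 598 nm) read at start and after 30 min; difference gives rate.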
# * hit, by the source's call; ? = inconclusive; . = not tested or not shown; & = joins results of further samples; [ ] = dose if it differs, or a comment. Rows are unselected; any-hit rate near 5.1%.
SMILES,Menin MLL FP FL,D2 agonist,ClpP mod,gsp ag,PINK1 modulator,gsp antagonist,Sfp inh
CS(=O)(=O)N1N=C(c2ccco2)CC1c1ccco1 (stereo not drawn),?,9.1,-0.6%,-1%,-0.7%,2%,-21%
CCCCn1c(SCC(=O)Nc2ccc(NC(C)=O)cc2)nc2ccccc2c1=O,0.7,-0.2,.,?,9.3%,-14%,6%
CCc1ccc(-c2ccc(SCC(=O)NC3CCCC3)nn2)cc1,.,-1.1,0.2%,-39%,3.4%,.,.
COCCNC(=O)c1ccccc1NC(=O)c1ccc(OC)c(OC)c1,-1.7,-0.3,-0.1%,-15%,-0.7%,9%,-19%
O=C(OCC(=O)N(CCc1ccccc1)Cc1ccccc1)c1cc(S(=O)(=O)N2CCOCC2)ccc1F,.,0.2,1.2%,0%[15.4 µM],0.4%,-9%,.
Cc1ccc2nc(SCC(=O)Nc3ccccc3N3CCOCC3)c(C#N)cc2c1,7.1,0.4,-1.6%,22µM*,5.0%,-6%,-14%
C#CCOc1c(Cl)cc(/C=N/O)cc1OC,0.9,-0.7,-9.2%,-12%,-1.8%,6%,0%
O=C(C1CCN(S(=O)(=O)c2cccc3nsnc23)CC1)N1CC=C(c2ccccc2)CC1,7.6,0.7,-4.0%,10%,4.3%,?,-6%
O=C(CCCCCN1C(=O)c2ccccc2C1=O)Oc1ccc2c3c(c(=O)oc2c1)CCC3,2.1,-4.0,136%,?,1.7%,-1%,-18%
CCOc1cccc(NC(=O)C2CCCN(S(=O)(=O)c3ccc(OC)cc3)C2)c1 (stereo not drawn),2.5,0.1,-1.3%,9%,-11%[38.3 µM],?,-5%
Cc1oc(C(=O)Nc2ccc(O)cc2)cc1COc1ccccc1,1.8,5.6,1.4%,12%,2.8%,-25%,-25%
O=C(CCC(=O)NNC(=O)COc1ccc(Br)cc1)NCc1ccccc1,-1.2,-5.5,.,-20%[15.4 µM],4.9%,-4%,15%
O=C(Cn1c(=O)oc2ccccc21)NC(=O)NCc1ccccc1,-0.4,0.3,-1.2%,29%,0.8%,6%,18%
CCOc1ccc(-c2nc(CS(=O)(=O)CC(=O)NCc3ccc(F)cc3)c(C)o2)cc1,2.4,3.9,?,-35%[inhibitor],3.9%,-5%,3%
Nc1nonc1-c1nc2ccccc2n1CCC(=O)O,7.6,-2.3,-9.3%,-7%,-0.6%,-2%,22%
O=C(Nc1ccc2c(c1)CCC2)c1cc(S(=O)(=O)N2CCN(c3ccccc3)CC2)ccc1Cl,?,-3.9,-0.4%,-5%,-2.7%,-15%,24%
O=C(Nc1cccnc1)Nc1ccc2c(c1)OCO2,1.1,-1.6,-1.8%,0%,.,7%,-1%
COc1ccc(O)c(C(=O)c2cnn(C(=O)c3cccc(N(C)C)c3)c2)c1,.,-3.3,22µM*,-6%,4.7%,-4%,.
COc1cc(C)ccc1OCCOCCOc1ccc(C)cc1[N+](=O)[O-],4.3,-2.9,-1.2%,?,-1.9%,5%,-3%
CCC(=O)N1c2ccc(S(=O)(=O)CCC(=O)N3CCn4c3nc3ccccc34)cc2CC1C (stereo not drawn),0.8,-2.7,-7.0%,-11%,1.1%,6%,19%
O=C(c1cc([N+](=O)[O-])cc([N+](=O)[O-])c1)N(Cc1nnc(-c2ccccc2Cl)o1)C1CC1,-2.3,11,.,-5%[15.4 µM],-1.1%,-13%,3%
O=C(COC(=O)c1cc(S(=O)(=O)N2CCOCC2)ccc1F)NCCc1ccc(F)cc1,.,0.2,-1.4%,11%,-1.0%,-5%,.
O=[N+]([O-])/C=C\c1ccc(N2CCOCC2)cc1,.,-5.8,-0.4%,27%,-0.9%,0%,.
CC#CCN1c2ccccc2[C@]23C[C@@H](C(=O)OC)N(C(=O)NC(C)(C)C)C2=NC(C(=O)OC)=C(C(=O)OC)[C@H]13,.,2.2,-0.2%,.,1.6%,-6%,.
O=C1CN(C(=O)c2c(F)cccc2F)C(c2ccc(F)cc2)c2cc(Br)ccc2N1 (stereo not drawn),-4.8,4.1,0.5%,?,-3.3%,-22%,-11%
C#CCOCCOCCOCCNc1nc(N2CCN(C(=O)[C@H](CCC(=O)O)n3cc(CN)nn3)CC2)nc(N2CCN(C(=O)[C@H](CCCN=C(N)N)n3cc(C(N)[C@@H](C)CC)nn3)CC2)n1 (stereo partly drawn),.,-0.4,0.8%,.,-0.6%,1%,.
CC1Oc2ccccc2C=C1C1/C(=C(/O)c2ccccc2)C(=O)C(=O)N1CCCN(C)C (stereo not drawn),3.3,-2.2,-0.3%,0%,0.0%,8%,10%
CCOC(=O)c1c(C)[nH]c(C(=O)NNC(=O)c2ccc(Br)cc2)c1C,.,-4.1,-16%,1%,0.7%,-1%,.
CC(C)(C)c1ccc(C(=O)NNC(=O)c2ccccc2Br)cc1,-0.3,-0.9,1.8%,23%,7.7%[38.3 µM],9%,10%
Cc1ccc(S(=O)(=O)NCC2CCC(C(=O)NCc3cccs3)CC2)cc1 (stereo not drawn),0.4,0.5,1.9%,2%,5.4%,7%,5%
c1nc(NC2CCCCC2)c2[nH]cnc2n1,-1.2,-4.2,-0.3%&0.0%,-19%,0.6%,-10%,13%
COc1ccc(S(=O)(=O)NC(CCSC)C(=O)NC2CCCCC2)cc1 (stereo not drawn),0.4,1.0,.,-37%[inhibitor],1.2%,6%,14%
CCOc1cc(CNc2ncn[nH]2)ccc1OCC(=O)NC(C)(C)C,-2.2,-3.1,-24%,11%[15.4 µM],0.1%,4%,13%
CCn1c(-c2ccccc2Cl)nn(CC(=O)NCCc2ccccc2)c1=S,1.5,-5.8,-0.3%,-11%,-1.6%,4%,25%
O=C(NCc1ccco1)c1cccc(S(=O)(=O)N2CCCC2)c1,-14,1.5,.,-27%,1.8%,4%,2%
Cc1ccccc1OCCNC(=O)c1ccc2ccccc2n1,2.6,-0.8,-0.5%,11%,10%,-31%,-11%
Cc1nn2c(NCCCN(C)C)c3c(nc2c1-c1ccccc1)CCCC3,-1.5,0.2,.,13%[15.4 µM],-1.4%,-12%,17%
c1ccc(-c2c3ccccc3nc3[nH]c4ccccc4c23)cc1,6.9&9.7,-1.0,4.0%,4%,16%,4%,-7%&-11%
CN(C)C(=O)CCC(=O)N(C)CC1CCCN(CCc2ccc(F)cc2)C1 (stereo not drawn),-2.3,-0.4,-1.0%,-9%,-1.0%,5%,1%
O=c1nc(N(c2ccccc2)c2ccccc2)[nH]c(=O)[nH]1,-4.5,1.1,-0.6%,-25%,3.8%,-1%,8%
CN(C)c1ncc2nc(-c3ccc(F)cc3)c(=O)n(C[C@H]3CCCO3)c2n1,-3.1,.,.,.,0.8%,.,16%
O=C(N/N=C/c1ccccc1C(=O)O)c1ccccc1Br,-2.2,-2.6,.,3%[15.4 µM],-0.7%,13%,11%
CCCC(=O)N1CCN(c2ccc([N+](=O)[O-])cc2Cl)CC1,3.1,-2.1,2.7%,?,-2.1%,-6%,7%
CCOC(=O)C1=C(N)Oc2c(oc(CO)cc2=O)C1c1c(F)cccc1Cl (stereo not drawn),6.5,1.5,6.1%,-7%,0.3%,-4%,-8%
CC1CCCCN1S(=O)(=O)c1ccc(S(=O)(=O)N2CCCC2)cc1 (stereo not drawn),.,3.3,1.2%,-6%,-0.7%,-2%,5%
CC(=O)c1cccc(NC(=O)COC(=O)CCNS(=O)(=O)c2ccccc2)c1,.,0.5,0.7%,-20%,2.4%,-6%,.
COc1cc(CNCC(O)c2ccccc2)ccc1OCc1ccc(Cl)nc1 (stereo not drawn),7.7,-2.8,0.7%,-13%,1.4%,34%,2%
CC(=O)c1sc(NC(=O)CCN2C(=O)C3CC=CCC3C2=O)nc1-c1ccccc1 (stereo not drawn),.,-4.6,0.0%,-3%,0.0%,-11%,.
CN(C)Cc1cccc([N+](=O)[O-])c1O,0.2,-5.1,-1.2%,?,6.3%,7%,8%
CCn1c(C)nc2cc(C(=O)NNC(=O)c3ccc(Cl)nc3)ccc21,1.6,-19,.,-7%[15.4 µM],6.0%,9%,15%
CC(C)(C)[C@H]1COC(=O)[C@@H](Cc2ccc(F)cc2)C/C=C\C[C@@H](CC(=O)N[C@H](CO)Cc2ccccc2)C(=O)N1,.,0.0,0.5%,-36%,7.2%,-1%,.
Cc1ccc(C(=O)N2CCN(c3ccc(C(F)(F)F)cn3)CC2)c(C)c1,-1.3,-1.2,?,-7%,1.1%,-3%,-2%
O=S(=O)(NCCc1ccncc1)c1ccccc1,-2.2,-0.2,-4.7%,6%[15.4 µM],0.1%,-10%,-6%
COCCNC(=O)c1ccccc1NC(=O)Cc1ccccc1[N+](=O)[O-],1.1,-2.0,-2.6%,-57%[inhibitor],1.6%,-5%,9%
CCOC(=O)c1cnc(SCC(=O)NNC(=O)c2ccco2)nc1N,1.0,2.4,.,22%,0.6%,4%,18%
O=C(Cc1n[nH]c(=O)c2ccccc12)NCc1ccccn1,3.2,-3.6,-1.3%,-18%,0.6%,14%,1%
CN1CCN(CCCNC(=O)CCN2C(=O)COc3ccccc32)CC1,.,-2.1,-1.1%,?,-0.9%,4%,12%
COc1cccc(OCC(=O)N(C)Cc2nc(-c3cccc(C)c3)no2)c1,-2.3,-1.1,-1.0%,-2%[15.4 µM],3.0%,-13%,-8%
COc1cccc(CNC(=O)C2(C)CCCCN2C)c1 (stereo not drawn),.,-4.4,-2.1%,.,0.3%,.,.
O=C1c2cccnc2C(=O)N1Cc1cccs1,1.1,-2.4,0.7%,3%,1.8%,5%,-12%

# Part of the list above, with tabs:
smiles	Menin MLL FP FL	D2 agonist	ClpP mod	gsp ag	PINK1 modulator	gsp antagonist	Sfp inh
CCOC(=O)c1cnc(SCC(=O)NNC(=O)c2ccco2)nc1N	1.0	2.4	.	22%	0.6%	4%	18%
O=C(Cc1n[nH]c(=O)c2ccccc12)NCc1ccccn1	3.2	-3.6	-1.3%	-18%	0.6%	14%	1%

# From PubChem BioAssay
